# AID504770 – growth inhibitors of E. coli YBA685 in a screen for V. cholerae RctB (chromosome II replication) inhibitors. E. coli YBA685 rctB-dependent plasmid, OD600 growth, 3 h; active compounds read low. z-score (no concentration beside the values). 0.27% of 130,000 active. AID 504770;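 active = z-score under -2 on both plates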;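 also: wells of about 30 µL received 100 nL stock; score is relative to mean and SD of the test wells; the first replicate is given; strong numbers were not always called active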
# Ba CapD inh – CapD enzyme inhibition. purified CapD enzyme, fluorescence intensity read-out; active compounds read low; some hits fall short of the stated cut. AID 492967. z-score (no concentration beside the values). 0.23% of 140,000 active;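 active = z-score under -4 in either of two replicates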;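 also: stock transfer was 100 nL into about 40 µL; score is relative to mean and spread of the plate; one replicate is shown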
# An asterisk follows results filed as active; · = not tested or not shown.
Compound | AID504770 | Ba CapD inh
CCCCCn1c(SCc2cccc(F)c2)nc2cc(C(=O)N3CCC(C(N)=O)CC3)ccc2c1=O | · | 0.35
CC(C)(C)OC(=O)N(C/C=C/c1ccccc1)CCOC(=O)NNC(=O)c1nccc2ccccc12 | · | -0.335
NS(=O)(=O)c1ccc(NC(=O)Nc2ccccc2)cc1 | -1.65 | -0.05
O=C(/C=C/c1ccc(Cl)cc1)NCCCn1ccnc1 | -0.25 | 3.82
CCOC(=O)c1cc(NC(C)=O)ccc1Oc1cncc(Cl)c1 | -1.05 | -0.205
O=C1CC(/C=C/c2ccco2)=Nc2ccccc2N1 | -0.4 | -3.75
N#CC(C(=O)c1ccc(S(=O)(=O)N2CCCCC2)cc1)c1nc2ccccc2c(=O)[nH]1 (centres undefined) | 1.7 | ·
O=[N+]([O-])c1cc2c3c(c1)C1C=CCC1C(c1ccc(F)cc1)N3CC1CC=CC21 (centres undefined) | · | -0.145
C[n+]1ccc(CCc2cc[n+](C)cc2)cc1 | -0.4 | -0.4
N#CC1=C(N)N(c2sc3c(c2C#N)CCCC3)C2=C(CCC2)C1(C(F)(F)F)C(F)(F)F | -0.15 | 0.11
CC(N)c1ccc(C(=O)O)o1 (centres undefined) | 0.7 | ·
CCSc1nc2ccccc2c(=O)n1C(C)C | 0.4 | ·

# An excerpt of these results, as labelled records:
O=[N+]([O-])c1cc2c3c(c1)C1C=CCC1C(c1ccc(F)cc1)N3CC1CC=CC21 (centres undefined)
  AID504770: ·
  Ba CapD inh: -0.145

C[n+]1ccc(CCc2cc[n+](C)cc2)cc1
  AID504770: -0.4
  Ba CapD inh: -0.4

# Continued:
Compound | AID504770 | Ba CapD inh
CS(=O)c1ccccc1O (centres undefined) | 0.85 | -0.475
Nc1sc2c(c1C(=O)c1cccs1)CCCC2 | 0.1 | ·
C=CCN=C1NN=C(c2ccc(Cl)cc2)C(C)S1 (centres undefined) | 0.05 | ·
CCCn1c(N2CCN(C(=O)/C=C/C(=O)O)CC2)nc2ccccc21 | 0.35 | ·
CSc1ncc(-c2ccc(Cl)cc2)cn1 | -1.3 | -0.715
COc1cc(OC)cc(OCC(O)Cn2ccnc2)c1 (centres undefined) | 0.15 | 0.565
Cc1ccc(C2=NS(=O)(=O)N(C)C(C(=O)N3CCC(C)CC3)=C2)cc1 | 0.5 | 3.32
CCOC(=O)CSc1nc2c(c(=O)[nH]1)C1(CCCC1)Cc1ccccc1-2 | -0.25 | 12.3
N#C/C(=C\c1[nH]c2ccccc2c1O)C(N)=NCCc1ccccc1 | 1.8 | 0.475
O=C(c1ccc(F)cc1)C1CCN(Cc2cn[nH]c2-c2ccc(F)cc2)CC1 | 0.2 | 0.255
Cn1c(C(=O)NCc2ccc(F)cc2)cc2c(=O)[nH]c3ccccc3c21 | 0.65 | -0.145
COC(=O)C1=CN(Cc2ccc(F)cc2)C=C(C(=O)OC)C1c1ccc(OCc2ccccc2)cc1 | · | 7.56

# Next structures follow.
Compound | AID504770 | Ba CapD inh
Cc1nn(-c2ccccc2)c2sc(C(=O)NCCCN3CCOCC3)cc12 | 0.6 | ·
CCOC(=O)c1cc(C)n(-c2cccc(F)c2C#N)n1 | -0.5 | 0.655
COC(=O)CSc1nnc(-c2ccccc2)n1C | 1.75 | ·
CCCN1C(=O)NC2NC(=O)N(CCC)C21 (centres undefined) | · | -0.395
O=C1CC2CS(=O)(=O)CC2N1c1ccc(Oc2ccccc2)cc1 (centres undefined) | -0.4 | 0.22
COc1ccc(Oc2cccc(Cl)c2CNC(=O)CCC(=O)O)cc1 | 0.3 | 0.51
Cc1cc(C)nc(SCC(=O)OCC(=O)Nc2cc(C)nn2-c2ccccc2)n1 | -0.6 | ·
Cn1c(=O)cc(Sc2ccccc2)[nH]c1=O | · | -0.385
O=C(NC1CC1)C1CCN(C(=O)NCc2ccccc2)CC1 | -0.8 | ·
O=C(/C=C/c1ccc(OCc2ccccc2)cc1)NCc1ccc(Cl)cc1 | · | -0.76
Cc1ccc(-c2nnc(SCN3C(=O)c4ccccc4C3=O)o2)cc1C | -0.3 | ·
COCc1ccc2c(c1)c1c3n2CCNC3CCC1 (centres undefined) | · | -0.305

# The list goes on:
Compound | AID504770 | Ba CapD inh
C=C1SC(Nc2ccc(C)cc2C)=NC1(C)C | · | 0
CC(C)OCc1cc(CN2CCN(C)CC2)c(O)c2ncccc12 | 0.4 | -0.98
COC(=O)c1ccc(NC(=O)COC(=O)C2CCN(S(=O)(=O)c3cccs3)CC2)cc1 | -0.25 | ·
CC1=Nn2c(Cn3nnc4ccccc43)nnc2SC1 | -0.55 | 0.39
Cc1cc(C(=O)NC2CC2)n(-c2ccccc2)n1 | -0.1 | -2.15
CC(C)N(Cc1nc(-c2ccccc2)no1)C(=O)CCN1C(=O)c2ccccc2C1=O | 0.4 | 0.205
O=C(CCCc1ccccc1)NC1CC1 | -1.05 | 0.5
CCCSc1nnc(-c2ccccc2N)c(=O)[nH]1 | · | -1.33
CN(C1CCN(Cc2c(F)cccc2Cl)C1)S(=O)(=O)c1ccc(F)c(F)c1 (centres undefined) | · | 0.265
Cc1cc(Cl)ccc1Nc1nnc(-c2ccccc2Cl)s1 | · | 2.02
COc1ccc(-c2c(C)[nH]n3c(=O)c(Cc4ccccc4)c(C)nc23)cc1 | 0.05 | 0.475
CCCn1c(SCC(=O)NCCc2ccccc2)nc(O)cc1=O | -0.25 | ·

# Continued.
Compound | AID504770 | Ba CapD inh
Cc1ccc(NC(=O)CCC(=O)n2nc(C)cc2C)c(C)c1 | 1.7 | ·
CC(=O)C1=NN(c2ccc(Cl)cc2)C(c2cccs2)N1c1ccc(Cl)cc1 (centres undefined) | · | 0.835
COc1cccc(C(=O)N/N=C/c2ccc(Cl)cc2)c1 | · | -0.75
COc1cccc(CN2CCN(C(=O)Nc3cccc(OC)c3)CC2)c1 | -0.2 | -0.585
CNC(=O)O/N=C(\N)c1nn(C(=O)NC)cc1Br | -1 | 0.31
O=C(CC(c1ccccc1)N(C(=O)Nc1ccccc1Cl)c1ccccc1)C1CC1 (centres undefined) | 1.55 | 0.295
COc1ccc(NC(=O)/C(=C/c2ccc3c(c2)OCO3)NC(=O)c2ccccc2OC)cc1 | · | 0.365
CC(C)Cc1cc(C(=O)Nc2ccc3c(c2)OCO3)no1 | -1.15 | -0.695
CCC(=O)NC(Nc1c(C)n(C)n(-c2ccccc2)c1=O)(C(F)(F)F)C(F)(F)F | -2.05 | -0.15
Cc1ccc(N2C(=O)CC(NCC(=O)O)C2=O)c(C)c1 (centres undefined) | 1.3 | ·
CSc1ncc2c(=O)[nH]ccc2n1 | 0.25 | 0.935
COc1ccc(Nc2nc3ccc(Cl)cc3n3cnnc23)c(OC)c1 | 1.05 | -0.96

# Sorted by heavy-atom count (high to low): part of the list above.
Compound | AID504770 | Ba CapD inh
Cc1ccc(NC(=O)CCC(=O)n2nc(C)cc2C)c(C)c1 | 1.7 | ·
COc1cccc(C(=O)N/N=C/c2ccc(Cl)cc2)c1 | · | -0.75
CCCN1C(=O)NC2NC(=O)N(CCC)C21 (centres undefined) | · | -0.395

# Later entries
Compound | AID504770 | Ba CapD inh
CCOC(=O)/C(=N\Nc1ccccc1Cl)N1CCCCC1 | -0.85 | ·
COc1ccc(CNC(=O)c2cn[nH]c2-c2ccc(OC)cc2)cc1 | 0.7 | -1.96
COc1ccc(NC(=O)CN(C)S(=O)(=O)c2ccc(-c3ccc(=O)[nH]n3)s2)cc1 | -0.65 | 1.25
O=C(NC1CCCC1)c1ncoc1-c1cccs1 | -0.85 | 68.8
CCOC(=O)C1=C(C)Nc2nnnn2C1c1ccc(OCc2ccccc2)c(OCC)c1 (centres undefined) | · | 0.1
CC(C)c1ccc(NC(=O)CNS(=O)(=O)c2ccccc2)cc1 | -0.75 | -0.185
Cc1[nH]c2ccc(OC(F)(F)F)cc2c1CCNC(=O)c1c(Cl)cnn1C | 1.35 | -0.42
CC(=O)Nc1cccc(Cl)c1 | · | -0.09
COc1cc(O)c(/C=N/NC(=O)COc2ccccc2Cl)c(OC)c1 | · | 0.12
Cc1c(C(=O)Nc2ccc3c(c2)OCCO3)sc2ncnc(N3CCN(c4ccccn4)CC3)c12 | · | -0.685
CCOC(=O)CC1CN(C)CCN1C (centres undefined) | 0.2 | ·
COc1ccc(OCc2cnc(OCc3ccc(Cl)c(Cl)c3)s2)cc1 | · | 0.33

# Next section.
Compound | AID504770 | Ba CapD inh
CC12CN3CC(C)(CN(C1)C3c1ccccc1[N+](=O)[O-])C2=O (centres undefined) | · | -0.305
Cc1ccnc(SC(C(=O)O)c2ccccc2)n1 (centres undefined) | -0.85 | -0.52
CN(C(=O)Nc1ccc2c(c1)OCCO2)C1CCCCC1 | -0.3 | ·
CCOC(=O)c1c(NC(=O)c2cnn3c2NC(c2ccc(Br)cc2)CC3C(F)(F)F)sc2c1CCCC2 (centres undefined) | · | 4.26
CCCc1cc(NCCc2ccc(OC)cc2)n2ncnc2n1 | -0.55 | ·
O=C(NCc1ccccc1)c1nc(-c2ccccc2)no1 | -0.05 | 0.03
COc1ccc(NC(=O)c2cccs2)cc1OC | -1.1 | -0.935
CCCCC(=O)Nc1ccc(C(=O)NCc2ccc(S(N)(=O)=O)cc2)cc1 | -0.75 | -0.185
COc1cccc(C(=O)OCC(=O)N(C)C)c1 | 0.65 | ·
CC(C)C(NC(=O)c1cccs1)C(=O)Nc1nc2ccccc2s1 (centres undefined) | -0.15 | 0.49
C/C(O)=C(\C(=O)Nc1ccccc1)C1(C(C#N)C(N)=O)CCCC1 (centres undefined) | -0.7 | -0.625
O=C1NCC(O)=C1C=Nc1ccc(C2CCCCC2)cc1 | 0.45 | 7.74

# Going on with the list:
# Below each compound – AID504770, Ba CapD inh
> CCc1ccc(CNC(=O)c2ccc(CSCc3ccc(C)cc3)o2)cc1
→ -0.25, 11.5
> Cc1n[nH]c(C)c1Sc1nnnn1-c1ccccc1
→ -0.45, 0.12
> Cc1[nH]n(CCc2ncc(-c3ccccc3)s2)c(=O)c1C1=NCCCCC1
→ 0, ·
> O=C(OCc1nnc(-c2ccc(Cl)cc2)o1)C1CCN(c2ccc(C(F)(F)F)cn2)CC1
→ -1.45, ·
> CCCN(Cc1nnc(-c2ccco2)o1)C(=O)c1nn(-c2ccccc2)nc1C
→ 0.05, ·
> Cn1nc(C(F)(F)F)c(CO)c1S(=O)(=O)c1ccc(Cl)cc1
→ ·, 0.235
> Cc1nc(-c2cccnc2)nc(N2CCCN(Cc3ccc(F)cc3)CC2)c1Cl
→ 0.15, -0.02
> c1ccc2nc3c(nc2c1)c1ccccc1n3CN1CCOCC1
→ ·, 2.48
> N#Cc1cc2c(N)c(C(=O)Nc3cccc(C(F)(F)F)c3)sc2nc1N
→ ·, -0.86
> O=C(CSc1nc2ccccc2s1)N1CCc2ccccc21
→ -0.7, 0.265
> O=C(O)CSCC(=O)Nc1ccc(Oc2ccc(OC(F)(F)F)cc2)cc1
→ 0.5, 0.23
> CCN1CCN(Cc2coc3ccccc3c2=O)CC1
→ -0.65, -0.13
> C=CCN1C(=S)NC(C)(C)C=C1C
→ 0.1, 0.205
> CC(C)(C)c1cc(C(=O)NCc2ccco2)n(Cc2ccc(F)cc2)n1
→ -0.2, 0.27
> c1ccc(-c2nnc(-c3ccccc3)nn2)cc1
→ -1, 2.04

# Following part
# Below each compound – AID504770, Ba CapD inh
> CN(Cc1ccccc1)C(=O)c1ccc2c(c1)S(=O)(=O)N=C1CCCCCN12
→ -0.6, ·
> COc1cccc(-n2nnc3c(=O)n(Cc4ccccc4F)cnc32)c1
→ -0.2, -0.24
> CN(C(=O)C1CC(c2ccc(F)cc2)=NO1)c1ccccc1 (centres undefined)
→ 0.25, -0.735
> CC1(C)OC(=O)CC1C(=O)N1CCOCC1 (centres undefined)
→ -0.45, 0.02
> COc1ccc(CC(=O)NC2CCN(CC(=O)Nc3ccc4c(c3)CCC4)CC2)cc1OC
→ 0.1, ·
> COc1ccccc1N1CCN(S(=O)(=O)c2ccccc2)CC1
→ 1.35, 0.02
> CN(CC(=O)NC1CCCC1)S(=O)(=O)c1ccc2[nH]c3c(c2c1)CCCC3
→ -0.85, 4.5
> Fc1cccc(CN2CCc3c([nH]c4ccccc34)C2)c1
→ 2.3, -0.445
> O=P12CN3CN(CN(C3)C1)C2
→ -1.8, ·
> CN(C)S(=O)(=O)c1ccc(C(=O)OCCn2cnc3c2c(=O)n(C)c(=O)n3C)cc1
→ 0.1, ·
> Cc1cccc(Nc2nnc(SCc3ccccc3C#N)s2)c1
→ 0.35, ·
> COc1ccc(CN(C)CC(O)COC2CCCc3ccccc32)cc1 (centres undefined)
→ -0.95, ·
> Cc1ccc(NC(=O)Cc2coc3ccc(C(C)C)cc23)cc1
→ -0.6, -1.46
> COc1cc2c(cc1OC)C(C)N(C(=O)CCN1C(=O)C3C4C=CC(C4)C3C1=O)CC2 (centres undefined)
→ -0.5, -0.155
> CCON1C(=O)NC(c2cc(F)ccc2C)(C(F)(F)F)C1=O (centres undefined)
→ -0.05, 0.285

# The results go on.
# Below each compound – AID504770, Ba CapD inh
> COc1ccc(/C=N/NC(=O)c2cc(C3CC3)nc3ccccc23)cc1C
→ ·, 0.615
> CCC(=O)Nc1ccc(-c2csc(NCCN(CC)CC)n2)cc1
→ 0.1, ·
> O=C(Nc1ccc(Cl)cc1)c1ccc(=O)n(Cc2ccc(Cl)cc2)c1
→ ·, -0.41
> O=C(NN=C1CCCCC1)c1ccccc1
→ -0.45, 0.13
> COc1ccc(NC(=O)CN(C)C(=O)C2=NN(C3CCS(=O)(=O)C3)C(=O)CC2)cc1 (centres undefined)
→ 0.05, ·
> CCSc1nn2c(=O)cc(COc3ccc(CC)cc3)nc2s1
→ -1.3, 1.19
> O=C(NCc1ccco1)c1ccc(Cn2c(=O)c3ccccc3n(Cc3ccccc3F)c2=O)cc1
→ 0.15, 0.545
> Nc1nnc(-c2ccco2)o1
→ -0.95, ·
> Nc1nc(SCC(=O)N2CCNC2=O)nc2sc3c(c12)CCCCC3
→ -0.5, ·
> CCC(CO)NC(=O)c1snnc1C (centres undefined)
→ 0, ·

# High-throughput results deposited in PubChem BioAssay by ICCB-Longwood Screening Facility, Harvard Medical School.
